AID923: qHTS Assay for Allosteric/Competitive Inhibitors of Caspase-1: Spectroscopic Profiling in AFC Spectral Region; 1.1% of 75,000 active; Potency, µM (top dose mostly 57.5 µM), inactives show at the top dose fluorescence increase, hits mostly activators; AID 923, 2007; compound fluorescence, AFC spectral region (405/520 nm); almost no hit is shown here; active = well fitted activation curve with a large enough effect; inconclusive = small, poorly fitted or top-dose-only effect;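 note: potency is the fitted concentration of half-maximal effect; 0% is about no effect; scaled to a free AFC standard on each plate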
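Titrations up to 57 uM read every 20 sec for 3 min (405/520 nm) with 50 nM caspase 1 and 5 uM Ac-WEHD-AFC, pH 7.5 HEPES buffer. Fluorescence-vs-time intercept gave baseline, scaled against on-plate AFC standard.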
Resorufin fluor: compounds fluorescent in resorufin spectral region; Compound fluorescence, resorufin region 547/598 nm, buffer; stronger effect = higher value; max dye-equivalent concentration, M; 0.04% of 59,000 active; active = above 10 nM dye equivalent; inconclusive = 1 to 10 nM; inactive = 1 nM or less; a few of its hits are not listed in these tables; note: highest value over a series up to 38 µM
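Intrinsic fluorescence profiled in the resorufin window (ex 547 nm, em 598 nm) after 15 min at room temperature in pH 8.0 Tris buffer (100 mM); responses normalized against a six-point resorufin standard series as dye-equivalent concentration.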
TSHR ag: TSH receptor (human) agonism. P16473. HEK293-CNG-TSHR cells (CNG channel as cAMP sensor), membrane potential dye, cAMP. Potency, µM (series often up to 57.1 µM), without a hit: at the highest dose activation, hits mostly activators. 0.48% of 73,000 active; active = well fitted activation curve of enough size with the parental cells flat; inconclusive = any curve in the parental cells; inactive = parental cells flat and receptor cells flat or falling; note: potency is the fitted concentration of half-maximal effect; % of control where 0% means no effect; weak receptor curves with flat parental cells got no call and are not listed
Target sequence (P16473 whole entry, looked up): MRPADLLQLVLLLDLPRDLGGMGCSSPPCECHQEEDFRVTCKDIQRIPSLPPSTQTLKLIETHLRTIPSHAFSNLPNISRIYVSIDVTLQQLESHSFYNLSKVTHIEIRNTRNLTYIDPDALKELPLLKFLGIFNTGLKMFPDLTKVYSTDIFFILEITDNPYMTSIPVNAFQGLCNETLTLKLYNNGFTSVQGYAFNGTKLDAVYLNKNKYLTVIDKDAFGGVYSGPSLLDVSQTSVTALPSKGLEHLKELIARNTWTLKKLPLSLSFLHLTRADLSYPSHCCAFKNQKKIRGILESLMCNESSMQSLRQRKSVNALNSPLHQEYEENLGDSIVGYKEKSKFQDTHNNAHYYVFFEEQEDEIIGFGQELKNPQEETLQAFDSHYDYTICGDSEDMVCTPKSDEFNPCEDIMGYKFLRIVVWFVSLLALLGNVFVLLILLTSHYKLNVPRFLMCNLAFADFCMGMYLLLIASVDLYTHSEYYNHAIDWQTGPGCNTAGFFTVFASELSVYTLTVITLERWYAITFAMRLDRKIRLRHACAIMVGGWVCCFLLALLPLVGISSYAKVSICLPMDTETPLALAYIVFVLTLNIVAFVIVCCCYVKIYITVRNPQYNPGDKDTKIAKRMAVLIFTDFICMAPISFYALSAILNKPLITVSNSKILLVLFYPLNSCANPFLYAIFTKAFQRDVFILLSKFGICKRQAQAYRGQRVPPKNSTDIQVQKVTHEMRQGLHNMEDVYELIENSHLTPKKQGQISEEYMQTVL
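cAMP rise detected as CNG-channel membrane depolarization by fluorescent dye (emission 590 nm), 30 min after compound, following 60 min dye loading containing 100 uM RO 20-1724 at room temperature. Cells: TSHR/CNG HEK 293, with parental CNG HEK 293 as control.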
A647 autofl: compound autofluorescence in A647 spectral region | Compound fluorescence, A647 channel (570/671 nm), Tris buffer | 59,000 tested, under 10 active | max dye-equivalent concentration, M | AID 592; active means above 1 µM dye equivalent; inconclusive means 0.1 to 1 µM; inactive means 0.1 µM or less;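 note: values scaled relative to a standard on each plate; highest value over a series up to 38 µM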
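Buffer was dispensed, compounds and Alexa 647 standards were pin-transferred, and plates sat 15 min at room temperature. Intensity at 570/671 nm was then converted to dye-equivalent concentration using the plate's A647 standard curve.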
A488 fluor: A488 region autofluorescence | compound autofluorescence, A488 spectral region, dye equivalency; stronger effect = higher value | max dye equivalency, M | 0.1% of 59,000 active; active = above 10 nM dye equivalent; inconclusive = 1 to 10 nM; inactive = 1 nM or less; about half of its hits are not listed in these tables;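 note: highest value over a series up to 38 µM; compound alone in buffer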
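Spectroscopic profiling in the A488 region: compounds in pH 8.0 Tris (100 mM), 15 min RT, CCD imaging with 480 nm excitation and 540 nm emission; responses normalized against A488 dye standards.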
* marks the source's active call; other numbers are inactive results; i = inactive; ? = inconclusive; · = not tested or not shown; & = joins results of further samples; [ ] = another dose, or the depositor's remark.

Fields – AID923	Resorufin fluor	TSHR ag	A647 autofl	A488 fluor
COc1ccc2cc(CCNC(=O)C(C)C)c(=O)[nH]c2c1
→ -3.1%	·	-3%	·	·
Cc1ccc(C)c(OCCCC(=O)O)c1
→ -1.3%	i	?	1.2e-09	i
COCc1nnc(NC(=O)CC(C)c2ccccc2)s1 (stereo not given)
→ -0.4%	i	?	1e-09	i
COc1ccc(OC2C=CC(C#Cc3ccc(F)cc3F)OC2CO)cc1 (stereo not given)
→ 0.9%&0.5%[11.5 µM]	·	?	·	·
CC(C)[C@H](NC(=O)OC(C)(C)C)c1nnc(SCC(=O)Nc2ccc(Br)cc2)o1
→ 2.5%	i	?	3.9e-09	i
Cc1cc(Cl)c(S(=O)(=O)N2CCN(c3ccc(F)cc3)CC2)cc1OCC(N)=O
→ -2.9%	i	3%	7e-08	i
Cc1ncc(CO)c(CO)c1O
→ -0.7%[25.7 µM]	i	-18%[25.6 µM]	3.1e-09	i
O=S(=O)(NCCc1ccccn1)c1cccs1
→ -0.9%	i	-3%	1.7e-08	i
CCC(OC(=O)c1cccs1)C(=O)NCc1ccc2c(c1)OCO2 (stereo not given)
→ 1.2%	i	1%	1e-09	i
O=S(Cc1ccc(Cl)cc1)CC(O)COCc1ccc(Cl)cc1 (stereo not given)
→ 1.1%	·	-2%	·	·
Cc1cnc(CNc2ncnc3ccc(-c4cccc(C#N)c4)cc23)cn1
→ 0.1%	i	4%	1.1e-08	i
COc1ccc(-n2c(Cc3cccn3C)nnc2SCC(=O)Nc2ccc3c(c2)OCCO3)cc1
→ -0.8%	·	1%	·	·
Cc1oc(-c2ccccc2F)nc1CN1CCC(C(=O)NCc2cccnc2)CC1
→ 1.0%	i	?	2.6e-08	i
Cc1cc(NS(=O)(=O)c2ccccc2)cc(Cl)c1O
→ -0.8%	·	-8%	·	·
CCCN1CCN(CCCNC(=O)Cn2nc(-c3ccc(C)cc3)ccc2=O)CC1
→ -0.1%	i	-1%	3.5e-08	i
Cn1c(=O)c2c(nc(NCCO)n2CCc2ccccc2)n(C)c1=O
→ -0.5%	i	16%	4.1e-08	i
CSc1nc(-c2ccccc2)nc(SC)c1C(C)=O
→ -0.3%	i	?	1e-09	i
COc1ccc(N(C(=O)c2ccc(S(=O)(=O)N3CCOCC3)cc2)C2C=CS(=O)(=O)C2)cc1 (stereo not given)
→ -0.9%	i	5%[11.4 µM]	1e-09	i
CS(=O)(=O)Nc1ccc(C(=O)NCc2ccc3c(c2)OCO3)cc1
→ 0.2%	i	12%	4.1e-08	i
Cc1cc(SCc2ccccc2)nc(=O)[nH]1
→ 0.0%	i	7%	1e-09	i
COC(=O)[C@@]1(Cc2ccc(F)cc2)[C@H]2c3cc(C(=O)N4CCCC4)n(Cc4cc(F)cc5c4OCOC5)c3C[C@H]2CN1C(=O)c1ccccc1
→ 1.1%	·	?	·	·
CN(C)CCCN1C(=O)C(=O)/C(=C(/O)c2ccc3c(c2)OCO3)C1c1cccnc1 (stereo not given)
→ 0.7%	i	3%	1e-09	i
CCOC(=O)c1snc(C(=O)NC2CCCCC2)c1N
→ 0.9%	i	?	7.6e-09	i
Cc1ccc(C(=O)N2CCN(C(=O)CN3CCOCC3)C2)cc1
→ 2.4%	·	1%[11.4 µM]	·	·
COc1ccc(-c2ccc(NCCC3=CCCCC3)nn2)cc1OC
→ 1.5%	i	?	4.4e-08	i
COC(=O)N1CCC[C@@]2(CCN(C(c3ccccc3)c3ccccc3)C2)C1
→ 1.9%	i	?	1e-09	i
Cc1c(Cl)ccc2c1NC(=O)[C@]21N[C@@H](CCC(N)=O)[C@H]2C(=O)N(c3ccc(F)cc3)C(=O)[C@H]21
→ -2.5%	i	·	1e-09	i
CCOc1ccccc1C(=O)N(Cc1cccs1)C1CCS(=O)(=O)C1 (stereo not given)
→ 2.0%	i	16%	6.9e-09	i
COC(=O)C1=C(C)N(Cc2ccccc2)[C@]23O[C@](C(=O)OC)(C(=O)N2C1c1ccccc1)C(C(=O)OC)=C3C(=O)OC (stereo not given in full)
→ -2.5%[11.5 µM]	·	-3%[11.4 µM]	·	·
CCc1ccc(NC(=O)CSC2=C(C#N)C(c3ccco3)C3=C(CCCC3=O)N2)cc1 (stereo not given)
→ ·	i	·	9.9e-08	i
Cc1cc(CNC(=O)[C@H](C)[C@H]2C[C@]2(C)[C@H](NC(=O)OCc2ccccc2)c2ccccc2)nn1C
→ -4.0%	·	?	·	·
CC1(C)NC(=O)N(CC(O)CN2CCCC2)C1=O (stereo not given)
→ 4.2%	i	-1%	2.7e-08	i
COc1ccccc1N1CCN(C(=O)C2CCN(S(=O)(=O)c3ccc(F)cc3)CC2)CC1
→ 7.9%	·	0%	·	·
O=C(CN1C(=O)CSc2ccccc21)NC1CCCC1
→ -0.8%	i	5%	2.5e-08	i
CCC(C)(C)n1nnnc1C(c1cc2ccc(OC)cc2[nH]c1=O)N1CCc2ccccc21 (stereo not given)
→ 18%	i	?	3.3e-08	i
O=C1c2ccccc2N2C(=O)c3ccccc3C2N1O (stereo not given)
→ -0.1%	i	7%	1e-09	i
Cc1cccc(Cn2c(N(C)Cc3ccccc3)nc3c2c(=O)[nH]c(=O)n3C)c1
→ -2.5%	·	10%	·	·
CCOC(=O)CSc1nc(C)c(C(C)=O)cc1C#N
→ ·	i	·	5.8e-08	i
Nc1ccc([N+](=O)[O-])c(N)c1
→ -2.1%	·	?	·	·
CC(NC(=O)CSc1nc2c(cc1C#N)CN(C)CC2)c1ccccc1 (stereo not given)
→ ·	i	·	5.4e-09	i
O=C(Cn1nc(-c2ccccc2)c2ccccc2c1=O)NCCN1CCOCC1
→ 1.5%	·	3%	·	·
CCc1ccccc1NC(=O)C(CC)Sc1nc2cc3c(cc2c(=O)n1Cc1ccco1)OCO3 (stereo not given)
→ 0.5%	i	?	6.4e-09	i
Cn1cnc2cc(NC(=O)c3ccc(Cl)cc3)ccc21
→ 0.4%	·	-6%	·	·
CCC12CCCN3CCC4(C(=C(C(=O)OC)C1)Nc1ccccc14)C32 (stereo not given)
→ 3.8%	i	?	1e-09	i
O=C(Cc1cn2ccsc2n1)Nc1ccccc1Oc1ccccc1
→ -1.5%	i	-5%	1.5e-08	i
CN(Cc1cc(Br)cc(Br)c1O)Cc1c(O)ccc2ccccc12
→ -1.4%[11.5 µM]	i	1%[11.4 µM]	1e-09	i
CC(C)(C)NC(=O)c1ccc(COc2ccccc2Br)o1
→ 1.5%	i	8%	1.4e-08	i
O=S(=O)(c1cccc2nsnc12)N1CCN(c2ncccn2)CC1
→ -1.9%	i	11%	1.3e-08	i
O=C1c2ccccc2C(=O)N1CCCc1nc2ccccc2c(=O)n1Cc1ccco1
→ 4.5%	·	2%	·	·
O=C(CCNC(=O)Cn1ccc2ccccc2c1=O)NCCN1CCN(c2cccc(Cl)c2)CC1
→ 0.1%	i	0%[11.4 µM]	3.2e-08	i
CC(C)=C1CCC(C)CC1=O (stereo not given)
→ -1.7%	·	10%	·	·
CCn1c(SCC(=O)NCc2ccccc2)nnc1-c1ccccc1O
→ -1.7%	i	3%	1e-09	i
O=C(NCCc1ccc(Cl)cc1)C1CCC(=O)N1C1CCCC1 (stereo not given)
→ -0.5%	i	-3%	5e-09	i
CC(=O)N1[C@H](C)C=C[C@]1(Cc1ccccc1)C(=O)NCc1ccc(C)o1
→ 5.8%	·	3%	·	·
CCCNC(=O)c1cc(-c2ccc(OC)cc2)on1
→ 0.8%	i	5%	8.6e-09	i
Cc1nnc(Sc2nc3c(c(=O)n(C)c(=O)n3C)n2Cc2ccccc2Cl)s1
→ 1.4%	i	?	5.3e-08	i
NS(=O)(=O)c1ccc(CCNC(=O)C2CCCN(S(=O)(=O)c3cccnc3)C2)cc1 (stereo not given)
→ -0.4%	·	6%	·	·
NCC[C@H](O)C(=O)N[C@@H]1C[C@H](N)[C@@H](O[C@H]2O[C@H](CN)[C@@H](O)[C@H](O)[C@H]2O)[C@H](O)[C@H]1O[C@H]1O[C@H](CO)[C@@H](O)[C@H](N)[C@H]1O
→ 4.7%	·	3%	·	·
O=C(NC1CC1)C1CCCN(C(=O)Nc2ccc(F)cc2)C1 (stereo not given)
→ 1.0%	i	-5%	1.3e-09	i
Cc1ccc(C)c(NC(=O)c2nnn(Cc3ccccc3C)c2N)c1
→ 0.5%	i	-5%	4.1e-09	i

As entered above.
Nc1ccc([N+](=O)[O-])c(N)c1 | AID923 = -2.1%
Cc1cc(Cl)c(S(=O)(=O)N2CCN(c3ccc(F)cc3)CC2)cc1OCC(N)=O | A647 autofl = 7e-08

Ordered by value in A647 autofl (high to low): 7 from the list above
mol,A647 autofl
CCc1ccc(NC(=O)CSC2=C(C#N)C(c3ccco3)C3=C(CCCC3=O)N2)cc1 (stereo not given),9.9e-08
Cc1cc(Cl)c(S(=O)(=O)N2CCN(c3ccc(F)cc3)CC2)cc1OCC(N)=O,7e-08
Cc1nnc(Sc2nc3c(c(=O)n(C)c(=O)n3C)n2Cc2ccccc2Cl)s1,5.3e-08
O=C(Cc1cn2ccsc2n1)Nc1ccccc1Oc1ccccc1,1.5e-08
Cc1cnc(CNc2ncnc3ccc(-c4cccc(C#N)c4)cc23)cn1,1.1e-08
CC(C)[C@H](NC(=O)OC(C)(C)C)c1nnc(SCC(=O)Nc2ccc(Br)cc2)o1,3.9e-09
CN(Cc1cc(Br)cc(Br)c1O)Cc1c(O)ccc2ccccc12,1e-09

Next section:
Fields – AID923	Resorufin fluor	TSHR ag	A647 autofl	A488 fluor
CC(C)(C)NC(=O)CN(C(=O)CS(=O)CC(=O)Nc1ccc(F)cc1)c1ccc(F)c(Cl)c1 (stereo not given)
→ -0.4%	i	-6%	2.3e-09	i
Cc1ccc(C(=O)c2cn[nH]c2-c2cc(Cl)ccc2O)cc1
→ -3.0%	i	-18%	6.5e-09	i
Cc1ccc(C(=O)Nc2ccncc2)o1
→ -2.4%	i	-13%	1.8e-08	i
O=C(Nc1ccccc1C(F)(F)F)N1CCN(c2ccc3nncn3n2)CC1
→ 0.5%	·	-3%	·	·
CC(C)(C)C(=O)c1no[n+]([O-])c1/C(=N/O)C(C)(C)C
→ -0.9%	i	21%	1e-09	i
Cc1cccc(NC(=O)c2ccccc2OCC(=O)N2CCOCC2)c1C
→ -2.0%	i	10%	3.1e-08	i
COC(=O)c1sccc1NS(=O)(=O)c1ccc(OC)cc1
→ 4.4%	·	?	·	·
CCOC(=O)C(CC)n1cnc2c(oc3ccccc32)c1=O (stereo not given)
→ 2.4%	i	7%	9.5e-09	i
CNC(=O)Cn1nc(C)c2ccccc2c1=O
→ -2.5%	i	-5%	1.1e-09	i
CCOC(=O)c1cc(C)n(Cc2cccc(OC)c2OC)c1C
→ ·	i	·	9.4e-09	i
O=C(N1CCCCC1)N1CCCN(C(=O)N2CCCCC2)CC1
→ 1.6%	i	14%	2e-08	i
O=C(CN1CCCN(S(=O)(=O)c2ccc(Br)cc2)CC1)Nc1ccc2c(c1)OCO2
→ 1.3%	i	?	2.2e-08	i
Cc1cnn(C(=S)NCC2CCCO2)c1 (stereo not given)
→ -1.5%	i	-1%	2.9e-08	i
COC(=O)[C@@]1(Cc2ccccc2)[C@H]2c3cc(C(=O)N(C)C)n(CCSCCO)c3C[C@H]2CN1C(=O)c1ccccc1
→ -2.3%	·	?	·	·

Not all compounds are listed; rates above refer to the full screens.
